# Screening data deposited in PubChem BioAssay by National Center for Advancing Translational Sciences (NCATS).
# VDR inhibitor: inhibitors of human vitamin D receptor | P11473 | VDR-SRC2-3 peptide fluorescence polarization, 2 h | Potency, µM, without a hit: max response, negative = inhibition, hits mostly inhibitors | hit rate 0.93% among 400,000; active means well fitted inhibition curve with a large enough effect; inconclusive means small, poorly fitted or top-dose-only effect, or another doubt; inactive means no such curve, though single readings can be large or run the other way; further: series mostly up to about 120 µM
# Target sequence (P11473 whole entry, looked up): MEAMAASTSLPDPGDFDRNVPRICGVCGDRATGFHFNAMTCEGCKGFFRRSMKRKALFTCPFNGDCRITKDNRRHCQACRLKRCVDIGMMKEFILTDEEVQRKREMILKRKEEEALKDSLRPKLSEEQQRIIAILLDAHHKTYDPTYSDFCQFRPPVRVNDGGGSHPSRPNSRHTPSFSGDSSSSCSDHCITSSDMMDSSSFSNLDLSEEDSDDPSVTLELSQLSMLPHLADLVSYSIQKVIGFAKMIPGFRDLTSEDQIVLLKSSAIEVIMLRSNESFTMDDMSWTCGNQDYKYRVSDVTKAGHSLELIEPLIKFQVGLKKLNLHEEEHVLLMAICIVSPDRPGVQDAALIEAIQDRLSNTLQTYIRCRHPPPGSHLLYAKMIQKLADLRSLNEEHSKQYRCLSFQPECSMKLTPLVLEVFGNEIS
#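 Two reagent solutions held at 4 deg C in the dark were dispensed, compounds pinned at 23 nl, and the mixture incubated 2 h at room temperature. Read-out: fluorescence polarization of VDR–SRC2-3 peptide binding.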
# * hit, by the source's call; ? = inconclusive; & = joins results of further samples. On the % scale 0 is the no-effect control and ±100 the full control effect; potency means the concentration at half of the fitted maximal effect.
canonical_smiles	VDR inhibitor
CCCCC(CC)CNC(=O)CN(C)S(=O)(=O)c1ccc2c(c1)c(=O)n(C)c(=O)n2C (stereo not drawn)	3%
COc1ccccc1-n1cnnc1SCC(=O)N1CC(=O)Nc2ccccc21	26%
Cc1cc2ccccc2n1CCNC(=O)c1ccc(S(=O)(=O)N2CCCCC2)cc1	-5%
CCCCCCC(=O)N/N=C(\C)Cc1ccccc1	1%
N#Cc1cccc(-c2nc(NCCN3CCOCC3)c3ccccc3n2)c1	-1%
O=C(/C=C/c1cccc(F)c1)Nc1ccc(S(=O)(=O)Nc2ncccn2)cc1	1%
CC(C)c1ccc(NC(=O)[C@@H](C)NC(=O)[C@@H]2Cc3ccccc3CN2)cc1	8%
NC(=O)c1ccsc1NC(=O)COC(=O)CNC(=O)c1ccc(Cl)cc1	0%
O=C(Nc1ccc2nc(SCC(=O)N3CCCC3)sc2c1)c1ccccc1F	0%
COCCNC(=O)C(c1ccc(C)cc1)N(C(=O)CCC(=O)Nc1ccccn1)c1ccc(F)cc1 (stereo not drawn)	4%
Cc1cccc(C2=N[C@@H](Cc3ccccc3)CO2)c1	-1%
O=C(COC(=O)c1c[nH]c2ccccc12)Nc1ccccc1	0%
CCN(CC)c1ccc(CNc2nc3ccccc3n2CC)cc1	25%
NS(=O)(=O)c1ccc(NC(=O)COC(=O)c2cc(Cl)ccc2[N+](=O)[O-])cc1	11%
Nc1nccnc1C(=O)OCC(=O)c1ccc[nH]1	11%
COc1cccc(-n2c(=O)c3c(C)c(C)sc3n(Cc3ccccc3C#N)c2=O)c1	7%
COc1ccc(S(=O)(=O)N2CCN(C(=O)CC(C)C)CC2)cc1	2%
CCOc1ccc2oc(C(=O)OCC(=O)N(CC(C)C)c3c(N)n(Cc4ccccc4)c(=O)[nH]c3=O)c(C)c2c1	3%
CCC(CO)Oc1cc(NCc2cccc(C(F)(F)F)c2)c2ncn(C(C)C)c2c1 (stereo not drawn)	-11%
Cc1ccc(CN2CCSc3ccc(C(=O)N4CCN(c5ccc(Cl)cc5)CC4)cc32)cc1	5%
CC(=O)c1ccc(NC(=O)c2ccccc2-c2ccccc2C(=O)O)cc1	-12%
Cc1ccc(C(=O)Nc2ccc3[nH]c(=O)c(=O)[nH]c3c2)cc1	-3%
COc1ccc(/C=C2/C(=O)N(CC3CCCO3)C(=S)N2C)c(OC)c1 (stereo not drawn)	4%
CCn1cnc2c1c(=O)n(CC(=O)OC)c(=O)n2Cc1ccccc1	5%
CCOC(=O)C1CCN(C(=O)c2c(C)nn(-c3ccc(F)cc3)c2-n2cccc2)CC1	6%

# An excerpt from above in order of the VDR inhibitor value, ascending:
canonical_smiles	VDR inhibitor
O=C(COC(=O)c1c[nH]c2ccccc12)Nc1ccccc1	0%
CC(C)c1ccc(NC(=O)[C@@H](C)NC(=O)[C@@H]2Cc3ccccc3CN2)cc1	8%
NS(=O)(=O)c1ccc(NC(=O)COC(=O)c2cc(Cl)ccc2[N+](=O)[O-])cc1	11%

# Returning to the listing, repeating the 4 entries before the break.
canonical_smiles	VDR inhibitor
Cc1ccc(C(=O)Nc2ccc3[nH]c(=O)c(=O)[nH]c3c2)cc1	-3%
COc1ccc(/C=C2/C(=O)N(CC3CCCO3)C(=S)N2C)c(OC)c1 (stereo not drawn)	4%
CCn1cnc2c1c(=O)n(CC(=O)OC)c(=O)n2Cc1ccccc1	5%
CCOC(=O)C1CCN(C(=O)c2c(C)nn(-c3ccc(F)cc3)c2-n2cccc2)CC1	6%
CCOC(=O)CSc1nc(N)c(C#N)c(-c2cccs2)c1C#N	-10%
C=CCN(CC=C)c1ccc(N2C(=O)C3CCCCC3C2=O)cc1[N+](=O)[O-] (stereo not drawn)	0%
O=c1c2ccccc2nc(-c2cccc(Cl)c2)n1O	-6%
CCOC(=O)C1CCN(C(=O)/C=C/c2ccc(OC)cc2)CC1	-6%
CCC(=O)Nc1ccc(NCc2ccc(-c3ccccc3)cc2)cc1	11%
Cc1cc(NC(=O)N2CCC(CN3CCCCCC3)CC2)ccc1Br	6%
CCN(CC)S(=O)(=O)c1ccc(N2CCOCC2)c(NC(=O)c2nn(C)c(=O)c3ccccc23)c1	12%
O=C(NC(=S)Nc1ccc(Cl)c(C(=O)O)c1)c1ccc(OCc2ccccc2)cc1	-26%
COC(=O)/C(=N/Nc1ccccc1Cl)Sc1nnc(C(O)c2ccccc2)n1-c1ccccc1 (stereo not drawn)	-23%
CCCN(CCC)Cc1c(C(=O)N/N=C/c2c[nH]c3ccccc23)nnn1-c1nonc1N	6%
COc1cc(C2CC(=O)Oc3c(C(CCN4CCOCC4)c4ccc(N(C)C)cc4)c(OC)cc(OC)c32)cc(OC)c1OC (stereo not drawn)	-16%&-1%
CC1CC(C)(C)CC2(C1)NC(=O)N(CC(=O)NC1CCCc3ccccc31)C2=O (stereo not drawn)	-11%
COc1cccc(Nc2nc3ccccc3c(=O)[nH]2)c1	6%
Cc1ccc(S(=O)(=O)c2cc3c(=O)n4cccc(C)c4nc3n(Cc3ccncc3)c2=N)cc1	-2%
Cc1nn2c(=O)cc(COC(=O)c3ccccc3NC(=O)C3CCCCC3)nc2s1	0%
Cc1oc(-c2ccoc2)nc1CN(Cc1ccccc1)CC1CC1	0%
CC1=C(C(=O)NCc2ccc(C)cc2)C2(CCCCC2)OC1=O	4%
Cc1onc(-c2c(Cl)cccc2Cl)c1NC(=O)NNc1ccccc1	-22%
CCc1nnc(NC(=O)c2sc3nc4cc(C)ccc4cc3c2N)s1	11%
COCc1ccc(C(=O)NC2CCSc3ccccc32)cc1 (stereo not drawn)	7%
COc1cccc(CC2(CO)CCN(Cc3cnc(N4CCOCC4)s3)CC2)c1	-12%
CN(CCNC(=O)CCCOc1cc(=O)n(C)c2ccccc12)Cc1ccccc1	-27%
CCOc1ncccc1C(=O)Nc1ccc(OC)c(S(=O)(=O)N2CCOCC2)c1	?
COC(CN(C)C(=O)c1ccc2c(c1)NC(=O)c1ccccc1S2)OC	-22%
COC(=O)C1C=CC(OC2OC(COC(C)=O)C(OC(C)=O)C(OC(C)=O)C2OC(C)=O)n2c(=O)n(-c3ccccc3)c(=O)n21 (stereo not drawn)	?

# (next part)
canonical_smiles	VDR inhibitor
CCOc1ccc(NC(=O)c2ccccc2NS(C)(=O)=O)cc1	7%
CC1=CCC2C(=O)N(C(C)c3ccccc3)C(=O)C2C1 (stereo not drawn)	-1%
O=C(CN1C2CCCC1CC(NC(=O)c1ccccc1)C2)Nc1ccccc1C(F)(F)F (stereo not drawn)	3%
Cn1nnnc1SCCNCc1ccccc1OCc1ccccc1	-13%
CCc1ccc(NC(=O)CNS(=O)(=O)c2c(C)noc2C)cc1	17%
CN1/C(=C\C(=O)COC(=O)CN2C(=O)C3CC=CCC3C2=O)C(C)(C)c2ccccc21 (stereo not drawn)	10%
O=C(Cc1cccs1)N/N=C/C=C/c1ccccc1[N+](=O)[O-]	-15%
O=C(COc1ccc([N+](=O)[O-])cc1)Nc1cccc2nsnc12	-1%
CCN(CC(=O)NC1CCS(=O)(=O)C1)c1ccc(S(C)(=O)=O)cc1[N+](=O)[O-] (stereo not drawn)	6%
CCOC(=O)N1CCN(c2c(NCc3ccccc3Cl)c(=O)c2=O)CC1	-15%
Cc1ccc(NC(=O)CNC(=O)c2ccco2)cc1	-11%
Cc1ccc(NC(=O)NC(=O)COc2ccccc2C(N)=O)c(C)c1	8%
CC(C)CCNC(=O)C1CC(c2cccc([N+](=O)[O-])c2)=NO1 (stereo not drawn)	-11%
CCOC(=O)c1nn(-c2ccc(F)cc2)c2nc(Nc3ccccc3)cc(=O)n12	-6%
COc1ccc(C2CC(c3ccc(OC)cc3O)=NN2C(=O)c2ccccc2)cc1 (stereo not drawn)	7%
CCOC(=O)C1=C(N)Oc2cc(O)ccc2C1c1ccccc1 (stereo not drawn)	-20%
Cc1cccc(C(=O)NCc2nc3ccccc3n2Cc2ccccc2Cl)c1	8%
CCOC(=O)CC(NC(=O)CCc1c(C)nc2nc(C)nn2c1C)c1ccc(OC(C)C)cc1 (stereo not drawn)	15%
O=C(NCc1ccc(F)cc1)c1ccc(NC(=O)C2CCCO2)cc1 (stereo not drawn)	-4%
CCOc1ccc(NC(=O)CSc2nc3ccsc3c(=O)n2CCC(C)C)cc1	-3%
O=C(Cc1ccccc1)N1CCCC(c2nc(-c3ccc(S(=O)(=O)N4CCCC4)cc3)no2)C1 (stereo not drawn)	-1%
COc1ccc(-c2[nH]ncc2CNC(C)c2cn(C)nc2C)c(F)c1 (stereo not drawn)	5%
Cc1c(Br)c(O)c(Br)c(O)c1/C=N/n1c(-c2ccccc2)n[nH]c1=S	?
Cc1ccc(C(=O)CSc2nc(C)cc(SCc3nnc(-c4ccccc4)o3)n2)cc1	1%
COc1cc(C)c(C(=O)Oc2cc(C)c(C(=O)O)c(O)c2C)c(OC)c1C	?

# Continued.
Structure,VDR inhibitor
COc1ccc2[nH]c(=O)c(C3c4cc(OC)c(OC)cc4CCN3C(=O)c3ccco3)cc2c1 (stereo not drawn),2%
CC(C)(C#N)N([O-])C=C[N+](=O)C(C)(C)C#N,15%
CCCCN(CC)C(=O)c1nn(C)c2c1CSc1ccccc1-2,3%
CC(=O)c1ccc(NC(=O)COCc2cc(-c3ccco3)on2)cc1,28%
O=C(NC(=S)Nc1ccc(Cl)cn1)c1cc([N+](=O)[O-])ccc1N1CCOCC1,0%
COc1cccc(CN2CCN(Cc3nc4c(s3)CCCC4)CC2CCO)c1 (stereo not drawn),-3%
CC(=O)Nc1ccc(NC(=O)CSc2nnc(NC(=O)c3ccco3)s2)cc1,-24%
COc1ccc(C(=O)CCC(=O)Nc2ccc(OC)c(Cl)c2)cc1,14%
Cc1oc2ccc(O)c(CN3CCN(C)CC3)c2c1C(=O)Nc1ccc(C(C)C)cc1,16%
CCC(C)(C)NC(=O)Cc1ccc(C)cc1,7%

# Following part
Structure,VDR inhibitor
CCC(=O)N1CCc2cc(S(=O)(=O)NC(C(=O)Nc3ccc(C(C)=O)cc3)C(C)C)ccc21 (stereo not drawn),-24%
COc1ccc(P(=O)(COc2ccc([N+](=O)[O-])cc2)c2ccc(OC)cc2)cc1,2%
Cc1cc(C)cc(OCCCn2ccnc2)c1,-18%
O=C(NC1CCCCC1)c1cc(C2CC2)on1,15%
Cc1sc2nc3ccc(N4CCCC4)nn3c(=O)c2c1C,-22%
O=C(OCC(=O)N1CCN(C(=O)c2ccco2)CC1)c1ccc(Cl)cc1,15%
Cc1ccc(NC(=S)NC(NC(=O)C(C)(C)C)C(Cl)(Cl)Cl)c(C)c1 (stereo not drawn),-21%
O=C(c1ccc(=O)[nH]c1)N1CCCc2ccccc21,-2%
Cc1cc(C)c2nc(N3CCCC(C(=O)NC4CCCC4)C3)sc2c1 (stereo not drawn),-8%
O=C(NC1=NCCS1)c1ccc(F)c(S(=O)(=O)N2CCOCC2)c1,-13%

# Next structures:
Structure,VDR inhibitor
C[C@H](NC(=O)[C@@H](N)Cc1ccc(O)cc1)C(=O)NCC(=O)N[C@H]1CSSC[C@@H](C(=O)O)NC(=O)[C@H](CO)NC(=O)[C@H]([C@@H](C)O)NC(=O)[C@H](Cc2ccccc2)NC(=O)[C@H]([C@@H](C)O)NC(=O)[C@H](CCCCN)NC(=O)[C@H](Cc2c[nH]c3ccccc23)NC(=O)[C@H](Cc2ccccc2)NC(=O)[C@H](Cc2ccccc2)NC(=O)[C@H](CC(N)=O)NC(=O)[C@H](CCCCN)NC1=O,-3%
O=C(O)c1ccc(COc2ccccc2C=C2C(=O)c3ccccc3C2=O)cc1,?
Cc1ccc(Cl)cc1Nc1nn2c(=O)c3ccc(C(=O)Nc4ccc(F)cc4)cc3nc2s1,-4%
COc1cccc(CNS(=O)(=O)c2cnc(N)nc2)c1,-5%
CCC1CCCCN1C(=O)COC(=O)c1cc(Br)ccc1Cl (stereo not drawn),7%
CC1CN(S(=O)(=O)c2ccc3c(c2)NC(=O)CC(=O)N3)c2ccccc2O1 (stereo not drawn),0%
COc1ccccc1CNC(=O)c1ccc(NS(=O)(=O)c2c(C)noc2C)cc1,5%
CCOc1ccc(CC(=O)OCN2C(=O)c3ccccc3C2=O)cc1,3%
O=C(C[n+]1ccc(C(=O)NCCCO)cc1)c1cccc(Br)c1,-15%
CC(=O)c1c(C)oc2ccc(OCc3ccccc3)cc12,-7%

# (next part)
Structure,VDR inhibitor
O=C(C1CC1c1ccccc1)N1CCOCC1 (stereo not drawn),-13%
O=C(CCC(=O)N(CC(=O)NC1CCCC1)c1ccc(F)cc1)Nc1nccs1,-6%
COc1ccc(CN2CCNC(=O)C2CC(=O)N(C)Cc2ccncn2)c(OC)c1 (stereo not drawn),1%
O=C(COc1ccccc1)N1CCN(S(=O)(=O)c2cccs2)CC1,16%
CCOC(=O)Nc1ccc2c(c1)C(=NO)c1ccccc1-2,-10%
CN(C)S(=O)(=O)c1cccc(COC(=O)CN2C(=O)NC3(CCCC3)C2=O)c1,6%
O=C(Cn1c(=O)c2cccn2c2ccccc21)NCCCN1CCCCC1,6%
CCOC(=O)CSc1nc2ccccc2n2cnnc12,-2%
Cc1ccc(OC(=O)c2cccc(C(=O)Oc3ccc(C)cc3)n2)cc1,3%
CC(Sc1nc(-c2ccccc2)nc2c1COC(C)(C)C2)C(=O)N1CCOCC1 (stereo not drawn),4%
COc1cc2[nH]c(=O)n(CCCCCC(=O)NCCCN3CCCC3=O)c(=O)c2cc1OC,-12%
COc1cccc(-c2noc(C(C)n3nc(C)c([N+](=O)[O-])c3C)n2)c1 (stereo not drawn),16%

# Some of these compounds in order of length of the SMILES, lowest first.
Structure,VDR inhibitor
CCOC(=O)Nc1ccc2c(c1)C(=NO)c1ccccc1-2,-10%
COc1ccc(CN2CCNC(=O)C2CC(=O)N(C)Cc2ccncn2)c(OC)c1 (stereo not drawn),1%
CN(C)S(=O)(=O)c1cccc(COC(=O)CN2C(=O)NC3(CCCC3)C2=O)c1,6%

# A portion of the library, so the mix of outcomes need not match the whole.
